Vaccinia mCherry: inhibitors of vaccinia virus infection (mCherry reporter signal); Vaccinia virus mCherry reporter infection, fluorescence; about a quarter of the inactives have no number; Potency, µM (series often up to 36.5 µM), without a hit: at the highest dose activity change, negative = inhibition, most hits filed as inhibitors; AID 720579; 0.63% of 310,000 active; active = well fitted inhibition curve with a large enough effect; inconclusive = small, poorly fitted or top-dose-only effect; inactive = no such curve, though single readings can be large or run the other way; tested in A549 cells; note: nearly all actives have a fitted effect of over 35% in size; inactives centre near -10
VACV Venus inh: inhibitors of vaccinia virus (Venus reporter). Vaccinia virus Venus reporter expression, fluorescence. 0.46% of 330,000 active. AID 720580. Potency, µM (top dose mostly 36.5 µM), for the others: at the top dose activity change, negative = inhibition, hits mostly inhibitors; active means well fitted inhibition curve with a large enough effect; inconclusive means small, poorly fitted or top-dose-only effect; inactive means no such curve, though single readings can be large or run the other way; tested in A549 cells; note: nearly all actives have a fitted effect of over 30% in size; inactives centre near -10
Numbers without * were called inactive; i = inactive; u = inconclusive; x = no result given; & = joins results of further samples; [ ] = remark or other dose. % is set by controls: 0 for no effect and ±100 for the full control effect; potency is the fitted concentration of half-maximal effect.

Second line of a record – Vaccinia mCherry | VACV Venus inh
- COOCC1(C(=O)OC)C[C@H](c2ccc(OC)cc2)N(Cc2ccccc2OC)[C@@H]1c1ccccc1C (stereo partly drawn)
  -19.3% | -1.0%
- Cc1ccc(NCC(=O)c2ccc([N+](=O)[O-])cc2)cc1
  -0.3% | 45.6%[activator]
- Nc1cc(C(=O)c2ccccc2)ccc1N1CCOCC1
  -32.5% | -23.1%
- COc1cccc2sc(NN)nc12
  -15.2% | -3.9%
- CCc1nc2c(OCc3ccccc3)cccn2c1N(C)C(=O)c1ccco1
  -10.6% | 0.6%
- CCCC1SCC(C)(C)NC1=O (stereo not drawn)
  -18.0% | -7.6%
- COc1cc(NC(C(=O)Nc2cccc(C(C)=O)c2)c2ccccc2)cc(OC)c1OC (stereo not drawn)
  -19.2% | -10.5%
- O=C(NCc1ccccc1Cl)c1ccc2oc(=O)n(Cc3ccccc3)c2c1
  -19.4% | -10.3%
- Cc1ccc(NS(=O)(=O)c2ccc(OCC(=O)N3CCN(C)CC3)cc2)cc1
  i | -9.8%
- Nc1nnc(SCCCOc2ccc(F)cc2)s1
  -10.2% | -0.1%

More entries.
Second line of a record – Vaccinia mCherry | VACV Venus inh
- CCOC(=O)C1CCN(C(=O)CCS(=O)(=O)c2cc3c(cc2Cl)NC(=O)CO3)CC1
  3.3% | -1.3%
- COc1cccc(C2=CC(c3cc(OC)ccc3OC)n3nnnc3N2)c1 (stereo not drawn)
  x | u
- Cc1nn(CC(=O)OCC(=O)NC(C)c2ccccc2)c(C)c1[N+](=O)[O-] (stereo not drawn)
  i | -12.2%
- COc1cc(/C=N/NC(=O)CCn2nnc3ccccc32)ccc1O
  -11.0% | -3.0%
- O=C(NC(=S)Nn1cnc2c(cnn2-c2ccccc2)c1=O)c1ccccc1
  -16.3% | -12.5%
- Cc1ccc(Sc2c(C)nn(C(=O)c3ccc(Br)cc3)c2C)cc1
  -12.8% | -5.9%
- O=C(OCc1cc(=O)n2nc(-c3cccs3)sc2n1)c1cccc(Cl)c1
  -11.5% | 0.3%
- Cn1c(SCC(=O)Nc2ccc(Cl)cc2)nc(O)cc1=O
  i | 0.0%
- O=C(C1=C[C@@H](c2ccc(Br)cc2)C[C@@H](OCCCCO)O1)N1CCN(Cc2ccccc2)CC1
  u | u
- CC(OC(=O)c1cn(C)c2ccccc12)C(=O)N(C)c1ccccc1 (stereo not drawn)
  i | -9.2%

Continued.
Second line of a record – Vaccinia mCherry | VACV Venus inh
- CCOC(=O)NC(=O)CN1C(=O)NC2(CCc3ccccc32)C1=O (stereo not drawn)
  -8.4% | -6.3%
- CN1CCN(c2oc(-c3ccccc3)nc2S(=O)(=O)c2ccc(Br)cc2)CC1
  -3.3% | -13.7%
- O=C(CNS(=O)(=O)/C=C/c1ccccc1)OC1CCOC1=O (stereo not drawn)
  i | -12.0%
- CC1CC(C)CN(C(=O)c2ccc(NC(=O)c3ccc(=O)[nH]c3)cc2)C1 (stereo not drawn)
  i | -4.6%
- Nn1cc(-c2ccccc2)nc1SCC(=O)NCCc1ccccc1
  -12.9% | -6.3%
- Cc1csc(SCC(=O)NC(C)c2ccc(F)cc2)n1 (stereo not drawn)
  3.1% | -2.2%
- C=CCn1c(C(C)(C)C)nc2ccccc21
  i | -4.5%
- CC1=NN(C2=NS(=O)(=O)c3ccccc32)C(C)(O)C1 (stereo not drawn)
  -1.1% | -1.8%
- CCOC(=O)c1sc(=NC(=O)c2ccccc2)n(C)c1C
  -10.3% | -3.2%
- CC(C)CCn1nnnc1C(c1ccc(F)cc1)N1CCN(C(=O)c2ccco2)CC1 (stereo not drawn)
  -22.8% | -10.7%

New compounds follow.
Second line of a record – Vaccinia mCherry | VACV Venus inh
- CCN(CC)C(=O)C1=C(C)Nc2nc3ccccc3n2C1c1ccc(Br)cc1 (stereo not drawn)
  -13.2% | -3.0%
- CC(CCc1ccccc1)NC(=O)CSc1ccccc1 (stereo not drawn)
  -14.8% | -11.9%
- Cc1cc(C)cc(C(=O)Nc2c(C(=O)Nc3ccccc3F)oc3ccccc23)c1
  -10.6% | 0.3%
- COc1ccc(NC(=O)c2oc3cc(C)c(C)cc3c2C)c(OC)c1
  x | 3.7%
- Cc1cccc(NC(=O)C2CCN(S(=O)(=O)c3cccc4nsnc34)CC2)c1
  -14.0%&3.1% | -15.9%&-1.9%
- O=C(O)C(F)(F)S(=O)(=O)O
  -5.3% | 2.5%
- Cc1cc(C)cc(Nc2ncnc3sc4c(c23)CCCC4)c1
  -3.2% | -3.2%
- O=C(NC1CCSc2ccccc21)c1ccc(C(F)(F)F)cc1 (stereo not drawn)
  4.4% | -21.4%
- CCN(C(=O)c1ccc(S(=O)(=O)N(C)C)cc1)C(C)C(=O)Nc1ccc(C)cc1 (stereo not drawn)
  -27.1% | -26.8%
- Cc1ccnc(NC(=O)C(C)n2cc([N+](=O)[O-])cn2)c1 (stereo not drawn)
  -4.6% | -16.0%

The list continues:
Second line of a record – Vaccinia mCherry | VACV Venus inh
- Cc1cc(=O)n2nc(N3CCC(C(=O)NCc4ccccc4F)CC3)sc2n1
  -14.0% | -2.7%
- CC(=O)N1CCN(c2ccc(NC(=S)NC(=O)COc3ccc(C(C)(C)C)cc3)cc2)CC1
  -12.5% | -2.4%
- Cc1cc(C)c2ccc3c(C)c(C)n(C)c3c2n1
  -7.2% | 1.5%
- Cc1ccc(NC(=O)COc2ccccc2)cc1S(=O)(=O)N1CCCCC1
  -2.4% | -13.8%
- CCN(CC1CCCN(CCc2cccc(OC)c2)C1)C(=O)c1ccoc1C (stereo not drawn)
  -5.5% | -3.1%
- COc1cccc(-c2nc(N3CCNCC3)c3ccccc3n2)c1
  -16.9% | -19.4%
- COc1ccc(Nc2cc(Nc3ccc(OC)cc3)ncn2)cc1
  3.0% | -9.0%
- COC(=O)[C@@]12CCCN1[C@H](c1ccc(-c3cccc(Cl)c3)c(OC)c1)[C@H]1C(=O)N(C)C(=O)[C@H]12
  i | -12.5%
- CCCN1CCN(CC(=O)Nc2nnc(CC)s2)CC1
  -13.0% | -13.8%
- COc1ccc(-n2c(=O)c3ccccc3n(CC(=O)NC3CCCC3)c2=O)cc1
  x | -6.7%

(cont.)
Second line of a record – Vaccinia mCherry | VACV Venus inh
- Cc1cc(=O)[nH]c(SCC(=O)Nc2ccc(F)c([N+](=O)[O-])c2)n1
  -5.1% | -4.4%
- Cc1ccccc1NC(=O)c1c(F)c(F)c(F)c(F)c1F
  u | u
- CC(C)(CCO)NC(=S)NC1CC2C=CC1C2 (stereo not drawn)
  i | -3.5%
- COCCNC(=O)/C(C#N)=C/c1c(N2CCN(c3ccc(OC)cc3)CC2)nc2c(C)cccn2c1=O
  u | -23.0%
- COc1ccc(NC(=O)CSc2nnc(-c3ccc(C)cc3)o2)cc1
  -0.9% | 9.3%
- Nc1ccccc1Nc1ccccc1
  u | -14.7%
- CCCC(C(=O)NC1CCCC1)N(C(=O)c1snc(C(N)=O)c1N)c1ccc(OCC)cc1 (stereo not drawn)
  -5.5% | -9.6%
- CCCCNC(=O)CSc1nc(COc2ccccc2)nc2ccccc12
  -5.3% | -3.9%
- O=C(CN1CCN(Cc2ccccc2)CC1)N/N=C/c1ccccc1F
  -0.5%[7.34 µM] | -5.3%[7.34 µM]
- COC(=O)CCNC(=O)Cc1ccc(S(=O)(=O)N2CCCCC2)s1
  i | 5.8%

New compounds follow:
Second line of a record – Vaccinia mCherry | VACV Venus inh
- O=C(CSc1nnc2scc(-c3ccccc3)n12)N1CCN(Cc2ccccc2)CC1
  -15.8% | -7.5%
- Cc1ccc(NC(=O)C2CCCN2S(=O)(=O)c2cccc3nsnc23)cc1Cl (stereo not drawn)
  -29.6% | -11.7%
- Cc1ccc(/C=N/OC(=O)c2c(C)noc2-c2snnc2C)cc1
  -13.4% | -2.4%
- Cc1cc(C)cc(NC(=O)Cn2c(=O)oc3cc(S(=O)(=O)N4CCCC4)ccc32)c1
  -3.6% | -15.9%
- Cc1cc(N2CCCC2=O)cc(C)c1S(=O)(=O)NCCOc1ccc(C(C)(C)C)cc1
  u | u
- COc1ccccc1-c1cc(-c2ccccc2)nc(SC(C(N)=O)c2ccccc2)c1C#N (stereo not drawn)
  u | u
- C#CCOCOCC#CCN(CC)CC
  x | -1.7%
- O=C(/C=C/c1ccccc1)N(Cc1cccc(Cl)c1)C1CCS(=O)(=O)C1 (stereo not drawn)
  i | -1.3%
- COc1ccc(/C=N/n2cnc3c(sc(=S)n3-c3ccccc3)c2=O)cc1
  i | -21.2%
- CCOC(=O)c1ccc(NC(=O)CSc2nc3ncc(Br)c(C)c3[nH]2)cc1
  -14.5% | -21.7%

Continuation.
Second line of a record – Vaccinia mCherry | VACV Venus inh
- Cc1ccc(-c2ccc(=O)n(Cc3ccc(F)cc3Cl)n2)cc1
  u | -23.9%
- C=CCN1C(=O)C(CC(=O)Nc2ccc(OCC)cc2)N(Cc2ccccn2)C1=S (stereo not drawn)
  i | -14.1%
- COc1cccc(-n2c(SC)nnc2-c2cnccn2)c1
  -6.9% | -5.4%
- CC(C)c1nn2c(=O)cc(COC(=O)c3ccc(NC(=O)CCc4ccccc4)cc3)nc2s1
  i | -10.1%
- Cc1cc(C(=O)NCc2cccnc2)no1
  -11.7% | -7.9%
- COCCNC(=O)[C@@H]1CSC2c3ccccc3C(=O)N21 (stereo partly drawn)
  -9.3% | -6.7%
- COc1ccc(Cn2c(O)c(C=Nc3ccccc3)c3ccccc3c2=O)cc1
  i | u
- Cc1c(Cl)cccc1NC(=O)c1ccc(C(=O)Nc2cccc(Cl)c2C)cc1
  -9.8% | -12.9%
- Cc1nn(-c2ccccc2)c(Cl)c1/C=C(/CC(=O)O)c1nc2ccccc2s1
  5.8% | 11.2%
- COc1ccc(C(=O)NC2CCN(C(=S)NCc3ccco3)CC2)cc1
  -14.2% | -4.9%

Later entries.
Second line of a record – Vaccinia mCherry | VACV Venus inh
- COc1cccc2cc(-c3nc(-c4ccccc4F)no3)c(=O)oc12
  -11.8% | 0.9%
- Cc1cccc(-n2c(C)n[nH]c2=S)c1C
  -14.3% | 0.0%
- CCOC(=O)C(NC(C)=O)(Nc1ccc(S(=O)(=O)Nc2ccncn2)cc1)C(F)(F)F (stereo not drawn)
  x | -12.8%
- O=c1cc(Cn2ccnc2)c2cc3c(cc2o1)CCC3
  36.7%[activator] | -5.6%
- CCOC(=O)c1ccc(NC(=O)c2ccccc2C)cc1
  -9.8% | -6.8%
- COc1ccc(CCN(C(=S)Nc2ccccc2)C2CC(=O)N(c3ccccc3)C2=O)cc1 (stereo not drawn)
  x | -23.8%
- Cc1ccc(S(=O)(=O)NCc2csc(C)n2)c(C)c1
  i | -4.6%
- COCCCNC(=O)c1c(NC(=O)C2COc3ccccc3O2)sc2c1CCCC2 (stereo not drawn)
  -20.6% | -17.6%
- CCNC(=O)Nc1ccc2c(c1)c(=O)n(C)n2Cc1ccc(Cl)cc1
  19.5% | 10.5%
- CCOC(=O)C1CCCN(c2c(NCCC(C)C)c(=O)c2=O)C1 (stereo not drawn)
  i | -1.4%

(next part)
Second line of a record – Vaccinia mCherry | VACV Venus inh
- CCOc1ccc(CN(CCc2ccc3c(c2)OCO3)Cc2cc(OC)c(OC)cc2OC)cc1
  i | -8.6%
- O=C(NCC1CCCCC1)c1cc([N+](=O)[O-])ccc1N1CCOCC1
  -19.8% | -9.5%
- Cc1ccc([N+](=O)[O-])cc1Nc1nc(N2CCOCC2)nc(N2CCOCC2)n1
  -2.3% | -2.5%
- CC(C)(C)NC(=O)CN(CCN1CCOCC1)C(=O)CNS(=O)(=O)c1ccc(Cl)cc1
  -26.2% | 14.4%
- COc1ccccc1CNC(=O)C(NS(=O)(=O)c1ccc2c(c1)CCN2C(C)=O)C(C)C (stereo not drawn)
  0.8% | -9.1%
- C[N+](C)(C)CCCN1C(=O)CCCC1=O
  -12.2% | -3.5%
- C[C@H]1CN([C@@H](C)CO)S(=O)(=O)c2ccc(Br)cc2O[C@H]1CN(C)C(=O)Nc1ccccc1F
  i | -2.3%
- CC(Sc1n[nH]c(=O)[nH]c1=O)C(=O)OCc1ccccc1 (stereo not drawn)
  x | -7.4%
- CCCCC1C(=O)NC(=S)N(C)C1=O (stereo not drawn)
  i | -4.7%
- Cc1nc(-c2ccc(Cl)cc2)sc1C1(C)CC(c2ccccc2)=NO1 (stereo not drawn)
  -4.2% | 1.2%

Later entries:
Second line of a record – Vaccinia mCherry | VACV Venus inh
- CC(C)C[C@H]1CNC(=O)C(=O)N1C[C@@H]1CCCN1C[C@H](CC(C)C)N1C[C@H](Cc2ccc(O)cc2)N(CCc2ccccc2)C(=O)C1=O
  -5.5% | -2.9%
- CC(=O)C1=C(C)NC(SCC(=O)c2ccc(Cl)cc2)=C(C#N)C1CC(C)C (stereo not drawn)
  -23.8% | -6.1%
- Cn1c(N)c(S(=O)(=O)NCc2ccccc2Cl)c(=O)n(C)c1=O
  -23.0% | -12.8%
- CCN1CCN(CCCNC(=O)c2cc3cc4ccc(OC)cc4nc3o2)CC1
  -5.0% | -13.6%
- CC1(C)N=C(c2ccccn2)C(C)(C)N1O
  i | -14.6%
- CCOC(=O)C1=NNC2C(=O)N(Cc3ccccc3)C(=O)C12 (stereo not drawn)
  i | -4.7%
- O=C1CSC(=S)N1N=Cc1ccc(Cl)cc1Cl
  -5.3% | 13.3%
- COc1ccc(Cl)cc1NC(=O)c1cc(C)no1
  i | -8.2%
- CCCC/C(O)=C1\C(=O)CCCC1=NCCc1c(C)[nH]c2ccc(OC)cc12
  u | -2.2%
- COc1ccc(Cn2c(=O)[nH]c3cc(C(=O)N4CCN(c5cc(Cl)ccc5C)CC4)ccc3c2=O)cc1
  -26.8% | -24.4%
- Cc1cccc(OCC(=O)Nc2ccc3nc(Nc4cccc(C(F)(F)F)c4)cc(C)c3c2)c1
  -21.2% | -28.1%
- O=C(Oc1ccccc1C(=O)N1CCOCC1)c1cccc(Br)c1
  x | -12.6%

Rows are unselected. About 0.86% of those tested had a hit in this group.
